PINK1 modulator – changes PINK1 expression; PINK1 immunofluorescence, high-content cytometry, 24 h; Potency, µM (highest dose often 76.6 µM), without a hit: top-dose activation (PINK1 increase), actives largely listed as activators; 410,000 compounds, 0.2% hits; active = well fitted activation curve with a large enough effect; inconclusive = small, poorly fitted or top-dose-only effect; inactive = flat fitted curve, though single readings scatter; cell line not stated here;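 further: potency means the concentration at half of the fitted maximal effect; % of control where 0% means no effect; nearly all actives have a fitted effect of over 65% in size; a mitochondrial uncoupler was the plate control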
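Stable cell line, 250 cells/well, 12 h attachment; compounds pinned at 5 concentrations, 24 h; CCCP control. Fixed with nuclear dye, primary antibodies 12 h at 10 degrees C, secondary plus cell stain; laser-scanning cytometer read.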
D2 agonist – agonists of human D2 dopamine receptor (beta-arrestin). DiscoveRx PathHunter D2 beta-arrestin, luminescence, 90 min; 100% = 57 uM dopamine signal. AID 624465. P14416. activation, % (test concentration not listed). 360,000 compounds, 0.084% hits; in the data active = activation above about 40%; inconclusive = about 15% to 40%; inactive = below about 15%; further: compound concentration not given in the record; the text of the record calls up to 30% inactive
Target sequence (P14416 whole entry, looked up): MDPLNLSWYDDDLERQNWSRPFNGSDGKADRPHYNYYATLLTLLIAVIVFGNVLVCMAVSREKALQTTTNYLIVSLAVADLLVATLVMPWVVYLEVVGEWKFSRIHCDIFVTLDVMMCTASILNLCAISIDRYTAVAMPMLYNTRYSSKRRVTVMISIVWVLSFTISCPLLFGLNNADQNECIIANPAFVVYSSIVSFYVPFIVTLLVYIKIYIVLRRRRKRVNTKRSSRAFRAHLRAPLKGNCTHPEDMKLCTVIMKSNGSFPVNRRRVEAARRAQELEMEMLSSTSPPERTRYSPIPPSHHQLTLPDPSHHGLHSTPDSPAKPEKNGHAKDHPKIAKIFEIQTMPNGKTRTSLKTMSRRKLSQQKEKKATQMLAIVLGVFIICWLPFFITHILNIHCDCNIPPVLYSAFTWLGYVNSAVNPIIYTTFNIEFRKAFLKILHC
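DiscoveRx PathHunter D2 beta-arrestin cells (2,100/well) attached overnight, then compound-stimulated 90 min at 37 C in HBSS/10 mM HEPES/0.1% Tween-20 buffer; beta-galactosidase complementation read by luminescence after 1 h at ambient temperature. Dopamine 57 uM final (EC100) as control.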
TRPML1 ag – activates the human TRPML1 channel. 410,000 compounds, 0.12% hits. AID 624414. TRPML1-expressing cells, Ca2+ dye fluorescence, FDSS; host cell line not named in the record; reference of the full effect not given here. activation, % (test concentration not listed). Q9GZU1; in the data active = activation above about 50%; inconclusive = about 30% to 50%; inactive = below about 30%; further: 0% is about no effect; the text of the record puts the active cut at 80%
Target sequence (Q9GZU1 whole entry, looked up): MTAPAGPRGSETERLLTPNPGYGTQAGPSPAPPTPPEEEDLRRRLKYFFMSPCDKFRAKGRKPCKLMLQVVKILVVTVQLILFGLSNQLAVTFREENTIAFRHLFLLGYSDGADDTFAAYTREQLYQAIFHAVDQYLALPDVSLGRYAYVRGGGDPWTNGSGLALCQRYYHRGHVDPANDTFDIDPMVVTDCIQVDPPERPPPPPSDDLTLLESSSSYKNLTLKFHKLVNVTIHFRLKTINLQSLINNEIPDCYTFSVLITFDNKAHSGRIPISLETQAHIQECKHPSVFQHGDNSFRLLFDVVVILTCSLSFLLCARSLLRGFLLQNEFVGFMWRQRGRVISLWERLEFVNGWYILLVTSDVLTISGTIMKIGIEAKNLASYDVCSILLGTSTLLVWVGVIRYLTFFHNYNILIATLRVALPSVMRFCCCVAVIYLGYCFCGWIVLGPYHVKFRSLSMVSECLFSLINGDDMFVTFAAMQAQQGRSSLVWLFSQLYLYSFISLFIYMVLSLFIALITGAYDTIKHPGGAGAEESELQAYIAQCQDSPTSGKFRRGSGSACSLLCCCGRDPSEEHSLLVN
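Tet-induced TRPML1-DL cells, 1,500 per well, cultured overnight, were loaded with a no-wash Ca2+ dye for 45–90 min. Calcium fluorescence was recorded on the FDSS for 110 s after compound addition, before the EC80 agonist (4 uM 54-4) was added.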
D2 potentiator – potentiates the human D2 dopamine receptor allosterically; 360,000 compounds, 0.23% hits; potentiation, % (test concentration not listed); P14416; DiscoveRx D2 beta-arrestin cells, luminescence, 90 min; 100% = 57 uM dopamine signal; active = potentiation of 50% or more; inconclusive = 30% to 50%; inactive = 30% or less;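 further: compound concentration not given in the record; tested on top of an EC20 dose of dopamine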
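PathHunter D2 cells, attached overnight at 37 deg C, received compound in DMSO plus dopamine at EC20 (50 nM final) for 90 min at 37 deg C. Beta-arrestin recruitment was read as luminescence after 1 h with detection reagent at ambient temperature.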
Six1-Eya2 inh – blocks human Six1 binding to Eya2. Q15475+O00167. AlphaScreen GST-Six1/His-Eya2 binding, biochemical; hits give low values; control for the full effect not named in the record. activity change, % (no concentration beside the values). 360,000 compounds, 0.56% hits. AID 651725; in the data active = activity change below about -65%; inconclusive = about -30% to -65%; inactive = above about -30%; further: on the % scale 0 is the no-effect control and ±100 the full control effect
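Compounds are tested against tagged Six1 and Eya2 proteins bridged by glutathione donor and nickel acceptor beads; after a one-hour incubation at 37 °C without light, AlphaScreen emission is recorded.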
CtBP-E1A blk – blocks the CtBP interaction with E1A; 340,000 compounds, 0.49% hits; activity change, % (test concentration not listed); AID 651724; AlphaScreen GST-E1A/His-CtBP binding, 1536-well; hits give low values; control for the full effect not named in the record; in the data active means activity change below about -65%; inconclusive means about -30% to -65%; inactive means above about -30%; further: on the % scale 0 is the no-effect control and ±100 the full control effect
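Homogeneous bead-based format: GST-tagged E1A captured on glutathione donor beads, His-tagged CtBP on nickel acceptor beads; compounds precede bead addition by 2 h at 37 °C.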
* = called active by the depositor; u = inconclusive; x = no result given; & = joins results of further samples; [ ] = another dose, or the depositor's remark.

SMILES	PINK1 modulator	D2 agonist	TRPML1 ag	D2 potentiator	Six1-Eya2 inh	CtBP-E1A blk
O=C(Nc1ccc(F)cc1)Nc1sccc1-c1nc2ccccc2s1	6.5%	1.5	1.1	-6.9	0.8	-2.9
Cc1cc(C)cc(C(=O)Nc2ccc(NC(=O)Cc3ccccc3)cc2)c1	6.4%	3.7	4.1	-6.6	8.4	-0.5
O=C1NN(c2cccc(Br)c2)C(=O)/C1=C/c1cccs1	3.8%	0.9	3.2	-6.2	15.6	10.1
CCCCCNCc1ccc(OCc2ccc(Cl)nc2)c(OC)c1	2.5%	-1.9	0.6	-22.5	6.3	10.3
COC(=O)c1ccc(CNC(=O)COC(=O)c2cccs2)cc1	-1.9%	-3.3	0.7	-9.5	2.4	-0.2
CN1CCN(c2ncccc2S(=O)(=O)N2CCCCC2)CC1	1.8%	-4.0	-0.5	-35.7	5.5	1.7
CS(=O)(=O)N1CCN=C1SCc1ccc(F)cc1	-0.1%	0.2	0.2	-1.0	1.2	x
CCOc1cc(CNc2cccc3ccccc23)cc(Br)c1OCC(=O)NC(C)(C)C	0.1%[38.3 µM]	-1.6	-0.3	4.4	-13.4	0.9
CC(C)(C)n1nc2c(c1NC(=O)c1c(F)cccc1F)CS(=O)(=O)C2	1.7%	3.1	0.4	2.0	-5.4	4.3
N/C(COc1cccc(Cl)c1)=N\NS(=O)(=O)c1ccccc1	-3.7%	-4.2	1.5	7.7	23.6	0.0
CC1CN(C(=O)CCNC(=O)c2ccc(Cl)cc2)CC(C)O1 (stereo not given)	-0.1%	0.5	-0.2	-2.9	13.8	1.5
CC(C)CNC(=S)N1CCC(Cc2ccccc2)CC1	1.2%	-3.6	3.4	-8.2	2.2	8.8
COc1cc(C(=O)N/N=C/c2cn(Cc3ccccc3)c3ccccc23)ccc1O	1.4%	-2.0	0.1	0.1	-5.5	-3.6
Nc1ccc(Br)c2cccnc12	4.7%	3.0	-1.3	-8.2	9.4	22.2
CC(CN1c2ccccc2Sc2ccccc21)N(C)C (stereo not given)	1.0%&-0.4%	-6.0	0.3&0.6	-17.2	1.5	-3.3
Cc1ccc(-c2nn(-c3ccccc3)cc2/C=N/n2c(-c3cccs3)n[nH]c2=S)cc1	-1.3%	-4.1	1.6	-19.6	-7.8	13.7
COc1cc(C)nc2nc(SCc3ccccc3)nn12	-0.3%	1.2	1.3	-8.2	-11.3	-0.8
C#CCN1C(=O)C(O)(CC(=O)/C=C/c2ccco2)c2ccccc21 (stereo not given)	9.1%	-2.6	0.5	-13.3	1.5	x
CC(N)c1csc(Nc2ncccn2)n1 (stereo not given)	-1.1%	-3.0	0.2	-8.2	-83.8*	-87.7*
C=CCc1cc(/C=N\NC(=O)CSc2nnc(CCCc3ccc(OC)c(C)c3)o2)cc(OC)c1O	4.8%	1.7	2.1	18.1	-8.5	-7.3

An excerpt of the results above:
SMILES	PINK1 modulator	D2 agonist	TRPML1 ag	D2 potentiator	Six1-Eya2 inh	CtBP-E1A blk
C#CCN1C(=O)C(O)(CC(=O)/C=C/c2ccco2)c2ccccc21 (stereo not given)	9.1%	-2.6	0.5	-13.3	1.5	x
CC(N)c1csc(Nc2ncccn2)n1 (stereo not given)	-1.1%	-3.0	0.2	-8.2	-83.8*	-87.7*
C=CCc1cc(/C=N\NC(=O)CSc2nnc(CCCc3ccc(OC)c(C)c3)o2)cc(OC)c1O	4.8%	1.7	2.1	18.1	-8.5	-7.3

Continued.
SMILES	PINK1 modulator	D2 agonist	TRPML1 ag	D2 potentiator	Six1-Eya2 inh	CtBP-E1A blk
Cc1cc(NC(=O)c2cnn3cccnc23)n(-c2ccccc2)n1	-3.2%[38.3 µM]	3.2	0.8	0.2	-20.9	u
O=C1CCSC2=C1SCc1sccc12	0.3%	x	-0.9	x	-6.0	2.2
COc1ccc2nc(NC(=O)Cn3cnc4c(=O)n(C)c(=O)n(C)c43)sc2c1	3.0%	-1.1	0.6	2.6	u	u
COc1ccc(C(=O)Nc2ccc3c(c2)C(=O)N(C)C3=O)cc1OC	9.0%	2.0	-0.4	-3.4	0.5	-19.3
Cc1ccc(C(=O)Cn2nnc(-c3ccccc3-n3cnnn3)n2)cc1	2.4%[38.3 µM]	-1.0	0.8	4.1	3.6	1.2
Cc1ccc2c(c1)C1(OCCCO1)C(=O)N2CC#N	2.1%	-0.4	x	-11.8	11.2	x
COc1ccc(C(=O)NC(=S)Nc2cccc(S(=O)(=O)N3CCOCC3)c2)cc1	2.2%	-4.0	-0.4	-11.1	1.9	-11.4
CC(=O)n1cc([C@H]2C=C(C(=O)N3CCOCC3)O[C@@H](OCCCCO)C2)c2ccccc21	0.1%	2.2	-0.7	-36.1	4.3	6.0
O=C(Cc1ccccc1[N+](=O)[O-])NCC1(c2cccc3c2OCO3)OCCO1	-3.5%	-4.1	-0.3	-16.5	6.1	5.0
O=C(O)C1Oc2cc3ccccc3cc2O1	1.1%	0.8	0.8	-2.9	1.3	0.3
O=C(CNC(=O)c1ccc(Br)cc1)c1ccc(Br)cc1	0.1%	-0.6	0.4	-0.6	7.9	2.2
CC(=O)N1N=C(c2ccc3ccccc3c2)OC12CCCC2	14.7%	-2.5	3.4	-11.0	-3.2	-5.4
COc1ccc(NCc2cccnc2)cc1	2.0%	-0.6	0.3	-0.1	0.0	-1.1
N#CC1=C(SCC(=O)NC2CC2)NC(=O)C(C#N)C12CCCCC2 (stereo not given)	u	3.0	0.1	5.2	9.5	15.3
CN(C(=O)CSc1nnc(Cc2ccccc2F)n1N)C1CCS(=O)(=O)C1 (stereo not given)	-2.2%	2.5	0.2	16.2	9.4	10.2
Cc1nc2sccn2c(=O)c1S(=O)(=O)N1CCN(c2cccc(Cl)c2)CC1	-0.1%	-2.1	-0.1	-2.2	3.5	-15.4
COc1cccc(CNc2nc3cc(-c4cscc4C)sc3c(=O)n2C)c1	2.0%	-3.5	1.3	-3.6	-5.2	1.4
CCOc1ccc(CCNC(=O)COC(=O)c2cccnc2SC)cc1OCC	-0.8%	-0.8	0.9	-11.1	7.8	1.7
COc1ccc(NC(C)=O)cc1NC(=O)CSc1nnc(-c2ccccc2)n1N	-0.5%	-2.8	-1.1	-1.8	4.3	0.0
COc1ccc(NC(=O)C(c2cc3c(cc2[N+](=O)[O-])OCO3)N(C)c2ccccc2)cc1 (stereo not given)	-1.7%	-3.3	-1.0	-9.9	u	-13.2
CC(C)C[C@H](NC(=O)c1[nH]cnc1C(=O)N[C@@H](C)C(=O)OCc1ccccc1)C(=O)OC(C)(C)C	4.9%	-2.8	1.5	-10.5	-6.6	-0.7
CCCCn1c(=O)[nH]c2nc3cc(NC(C)=O)ccc3nc2c1=O	11.6%	-3.0	8.2	-4.3	2.8	-6.8
Cc1ccc(S(=O)(=O)N2C[C@H]3C(=O)C[C@@H](c4ccc(Cl)cc4)N(S(=O)(=O)c4ccc(C)cc4)[C@H]3C[C@H]2c2ccccc2)cc1	1.4%	-1.8	0.4	0.0	3.2	0.5
CN(C)CCn1c(=O)n(C2CCCCC2)c(=O)c2c3c(sc21)CCCCC3	2.9%	1.0	1.0	-4.4	-0.5	-12.9
O=C1c2ccc(Oc3cccc([N+](=O)[O-])c3)cc2C(=O)N1c1ccccn1	0.3%	-1.3	-0.3	-7.4	1.0	x
COC(=O)Oc1c(Br)c(=O)oc2ccccc12	1.2%	1.9	0.2	6.3	5.0	2.5
CCn1c(CCNC(=O)c2cccs2)nnc1SCC(=O)c1ccc(OC)cc1	-1.2%[38.3 µM]	1.0	1.4	-8.6	-1.3	1.2
COc1ccc(CCNC(=O)CNS(=O)(=O)c2ccc(Cl)cc2)cc1	0.2%	3.5	0.0	-9.1	4.1	5.8
O=C(CN1C(=O)CC(c2ccccc2)=Nc2ccccc21)NCc1ccccc1	-0.7%	-1.0	0.1	-8.4	3.7	-4.8
O=[N+]([O-])c1ccc2[nH]c(O)c(N=Nc3ccc(F)cc3)c2c1	28.2µM*	-2.7	0.3	-5.4	4.4	-2.3
COc1ccc(CCNC(=O)C(C)OC(=O)c2ccco2)cc1OC (stereo not given)	-1.4%	-3.2	-0.6	4.2	-4.2	2.3
CCOC(=O)[C@]12CCCC=C1N(Cc1ccc3c(c1)OCO3)C(=O)[C@H](CC(=O)NCCCCc1ccccc1)C2	1.6%	x	0.3	x	1.3	-6.2
CC(C)=CCn1c2ccc(NC(=O)NCc3ccc(F)cc3)cc2c(=O)n1C	5.4%	7.0	0.4	1.9	2.1	1.2
N/C(CCS(=O)(=O)c1ccc(Cl)cc1)=N\OC(=O)c1ccc(Cl)cc1	-0.2%	-0.6	-0.7	-14.1	6.9	x
C=CCNC(=O)C1CC(=O)N(c2ccc(OCC(=O)Nc3ccc(OC)cc3)cc2)C1 (stereo not given)	x	-0.5	-0.4	-14.1	-0.5	5.9
Cc1cc(-c2ccccc2)c(C#N)c(=S)[nH]1	-1.2%	-1.0	1.1	-8.7	-0.7	-3.7
CCCOC(=O)c1ccc(NC(=O)CCOc2ccccc2)cc1	0.7%[38.3 µM]	-0.2	0.1	-0.6	3.5	20.3
CC1=C(C(=O)Nc2ccccc2)C(c2ccco2)n2ncnc2N1 (stereo not given)	-1.5%[38.3 µM]	-1.8	0.5	7.3	2.1	6.4
CNC(=O)CSc1nnc(-c2ccc3c(c2)OCO3)n1C	-1.8%	-4.1	0.6	-14.6	5.5	x
CCOc1ccc(C(=O)Oc2cc(C)[nH]c(=O)c2[N+](=O)[O-])cc1	2.0%	-3.2	-0.7	-1.8	9.7	5.9
CCOC(=O)C1(C)CCCN(C(=O)COc2ccccc2)C1 (stereo not given)	1.3%	-1.9	-0.7	1.3	6.6	2.8
NC(=O)C1CCN(C(=O)C(=O)c2cn(CC(=O)N3CCCC3)c3ccccc23)CC1	-0.8%	-6.6	0.0	3.0	2.8	11.2
CC1CN(C(=O)/C=C/c2ccc(SC(F)F)cc2)CC(C)O1 (stereo not given)	-0.5%	3.1	-0.5	0.4	4.7	4.7
CC(C)OC(=O)c1ccc(NCc2cc(O)ccc2O)cc1Cl	0.3%	u	0.5	29.7	-20.3	7.7
COc1ccc(/C=C/C(=O)c2ccc(O)cc2)cc1	1.1%	2.3	x	-11.1	6.6	7.7
CC(OC(=O)c1ccc2ncsc2c1)C(=O)Nc1cccc(Cl)c1 (stereo not given)	-0.4%	-5.7	-1.0	-16.2	9.2	x
Cc1ccc(NC(=S)NNC(=S)NCc2ccccc2)cc1	-0.7%	-3.1	-0.2	-8.1	-24.8	-19.8
Cc1cccc(Cc2cnc(N3C(=N)SC(c4ccccc4)C3=O)s2)c1 (stereo not given)	14.7%	-4.1	1.3	-6.8	-9.1	4.7
CCCCCOc1ccc(C(=O)NC(CCC)C(=O)O)cc1 (stereo not given)	-0.1%	-0.5	-1.4	-7.2	7.7	1.3
N/C(=N\OC(=O)c1ccc(Cl)cc1[N+](=O)[O-])c1ccccn1	-2.5%	62.6*	0.4	6.8	-21.6	-14.4
Cc1ccc(-c2cc(C(=O)Nc3ccc(S(=O)(=O)Nc4nccs4)cc3)c3ccccc3n2)c(C)c1	-2.5%	0.1	1.1	19.9	-21.9	-0.2
Cn1c(NC(=O)c2ccc(Cl)s2)cc(=O)n(C)c1=O	1.8%	-4.4	-0.6	-7.8	-3.4	-5.1
